Screens from PubChem.
UUG fidelity – modulators of yeast start codon fidelity, primary screen, whole organism, S. cerevisiae, single point, plate reader. S. cerevisiae UUG-firefly luciferase reporter, luminescence/redox ratio. 0.13% of 350,000 active. activity score, % at 18.7 µM. AID 602363, 2012;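 active = replicate mean at a twofold rise or more, about +100% in these data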;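 note: firefly luciferase made from a UUG start codon reports start codon fidelity; reporter light over untreated wells divided by growth signal over untreated wells; some hits fall short of that in this replicate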
MT1-MMP act inh – blockers of MT1-MMP proenzyme processing, primary screen, HT1080 RFP-PRO-GFP cells, GFP/RFP fluorescence; GFP/RFP ratio fluorescence, overnight; percent of plate control window, DMSO zero; GFP/RFP ratio change, % at 20 µM; 0.061% of 360,000 active;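 active = GFP/RFP ratio change of at least 30% with cell ATP level not reduced by more than half and red fluorescence within 50% of control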; note: strong numbers were not always called active
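Test system: HT1080 RFP-PRO-GFP cells; Benchmarks: DMSO and RFP-L50D-GFP cell wells; Timing: cells overnight before dosing, compound overnight, 37 °C, 5% CO2; Compound: one 20 µM compound dose with 1% DMSO; Read-out: GFP/RFP fluorescence ratio.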
MT1-MMP act inh RFP – second read-out of MT1-MMP act inh, no call of its own (marks repeat the call); RFP signal change, %; measured here: RFP expression control read;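 0 = vehicle wells; hits needed this value within 50% of zero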
The depositor's hits bear a star. A portion of the library; the hit share may differ from the screen's.

MT1-MMP act inh | MT1-MMP act inh RFP | UUG fidelity | SMILES
2 | -3 | -7 | Cc1ccc2c(c1)C(=O)N1c3cc(C)c(C)cc3NC(=O)C1C(=O)N2 (stereo not given)
-4 | 4 | 4 | CC(=O)Nc1ccc(NC(=O)C(C)OC(=O)COc2ccc(Nc3ccccc3)cc2)cc1 (stereo not given)
-7 | -6 | -3 | C[C@@H]1CNC(=O)c2c(C(=O)Nc3cccc(Cl)c3)ncn21
1 | 4 | -14 | COc1ccccc1NS(=O)(=O)c1ccc(C(=O)NCC(c2ccco2)N(C)C)cc1 (stereo not given)
0 | 4 | -8 | COC(=O)C1CCN(C(=O)COC(=O)c2cc([N+](=O)[O-])ccc2N2CCOCC2)CC1
1 | 2 | -10 | COc1ccc(CC(=O)OCC(=O)Nc2c(C)n(C)n(-c3ccccc3)c2=O)cc1OC
2 | -1 | -17 | Cc1cccc2sc(NC(=O)CCNC(=O)c3ccco3)nc12
-6 | 6 | 10 | COc1ccccc1Cc1c(-c2ccc(Cl)cc2)nc2ccc(Cl)cn12
-3 | -10 | 6 | O=C(CN1CCN(S(=O)(=O)c2ccccc2F)CC1)Nc1ccnn1C1CCCC1
1 | 5 | -7 | CC(C)(C)c1ccc(C(=O)OCC(=O)NCc2ccco2)cc1
2 | -4 | -2 | O=C(Nc1ccc(N2CCN(C(=O)c3cccs3)CC2)cc1)c1ccc(Br)o1
-4 | -1 | 11 | O=C(CCNC(=O)c1ccccc1)Nc1nc2ccccc2s1
0 | -6 | -13 | COc1ccc(Cc2nnc(SCC(=O)c3c(N)n(C4CC4)c(=O)[nH]c3=O)o2)cc1
-9 | -31 | 4 | CCS(=O)c1ccccc1C(=O)OCC(=O)Nc1cccc(S(=O)(=O)N2CCCCC2)c1 (stereo not given)
3 | 4 | -13 | CCN(CC(=O)Nc1c(F)cccc1F)C(=O)Cn1c(=O)cnc2ccccc21
-3 | -6 | -21 | O=C(NCc1ccccn1)c1ccccc1OCc1ccc(Cl)cc1Cl
-2 | -2 | -8 | CCC1CCCCN1C(=O)COc1ccc2c3c(c(=O)oc2c1)CCC3 (stereo not given)
-1 | 2 | -3 | CCCCn1c(N)c(N(C)C(=O)C2CCCC2)c(=O)[nH]c1=O
-1 | 3 | -9 | O=C(CN1C(=O)NC2(CCCC2)C1=O)Oc1ccc2ccc(=O)oc2c1
2 | 3 | -14 | COCCNC(=O)C1CCCN(C(=O)c2ccc(SC(F)(F)F)cc2)CC1 (stereo not given)
3 | -2 | -10 | O=C(c1ccc2c(=O)n(-c3ccccc3)c(=S)[nH]c2c1)N1CCN(c2ccccc2)CC1
-3 | -1 | -6 | CCCC(=O)N1CCC1(C)C(=O)NS(=O)(=O)c1ccc(C(C)(C)C)cc1 (stereo not given)
0 | 2 | -5 | COc1ccc(C(CNC(=O)c2cccc(NS(=O)(=O)c3ccccc3)c2)N2CCCC2)cc1 (stereo not given)
-3 | -3 | -26 | CC(C)Oc1cc(F)ccc1-c1cc(C(=O)NCCc2ccncc2)[nH]n1
3 | 5 | -10 | CCCC1NC(=O)c2cccnc2-n2c1nc1ccc(C)cc1c2=O (stereo not given)
-3 | 4 | 8 | Cc1cccc(C(=O)OCC(=O)c2ccc(CC(=O)N3CCOCC3)s2)c1C
-2 | 3 | -5 | CCCNC(=O)C1(C)CCN(C(=O)c2ccc3ccccc3c2)C1 (stereo not given)
11 | 2 | -14 | Cc1ccccc1C(=O)NNC(=O)c1cc(S(=O)(=O)N2CCOCC2)ccc1C
-2 | -1 | -12 | COc1ccc(C(CNC(=O)c2cccc(S(=O)(=O)Nc3ccc(F)cc3)c2)N2CCCC2)cc1 (stereo not given)
1 | 5 | -15 | COC(=O)C[C@@H]1C[C@H]2c3cc(NC(=O)C4CCC4)ccc3O[C@H]2[C@@H](CO)O1
-6 | 3 | -6 | CN[C@H]1C[C@H]2c3[nH]c4ccc(-c5cccc(C)c5)cc4c3CCN2C[C@H]1[C@H](C)O
-5 | 3 | -13 | CSc1nc(Cl)c(Br)c(Nc2c[nH]c(=O)[nH]c2=O)n1
4 | -1 | -20 | O=S(=O)(Nc1ccc(-n2cnnn2)cc1)c1ccccc1F
1 | 0 | -6 | COc1ccc(C(=O)OCC(=O)Nc2cccc(S(=O)(=O)NC3=NCCCCC3)c2)cc1[N+](=O)[O-]
-1 | 1 | -10 | CSc1ccc(S(=O)(=O)NCC(=O)OCC(=O)N(C)CC(=O)Nc2ccc(F)cc2)cc1[N+](=O)[O-]
4 | 3 | -19 | Oc1c(CN2CCOCC2)cc(CN2CCOCC2)c(O)c1O
0 | 5 | 11 | CC(=O)Nc1cccc2cc(O)ccc12
4 | 3 | 2 | Cc1cnc(C(=O)N(CCCn2ccnc2)C2C(=O)Nc3ccccc3N=C2c2ccccc2)cn1 (stereo not given)
2 | 4 | -16 | Nc1ccn([C@@H]2O[C@H](CNCC3=CCOc4ccc(O)cc43)[C@@H](O)[C@H]2O)c(=O)n1
5 | 0 | 2 | COc1ccccc1NC(=O)C(C)Sc1nnc2ccccn12 (stereo not given)
0 | -1 | -10 | COc1cc(S(=O)(=O)N2CCN(Cc3cccs3)CC2)ccc1NC(C)=O
1 | 3 | -4 | COc1cccc(CC(NC(C)=O)C(=O)NC2CCN(c3c4c(nc5ncnn35)CCC4)CC2)c1 (stereo not given)
1 | 0 | -1 | O=C(Nc1cccc2ccccc12)ON=C1CCCCC1
-2 | -1 | -12 | Cc1ccc(NC(=O)CCN2C(=O)NC3(CCCC3)C2=O)cc1S(=O)(=O)N1CCOCC1
0 | 2 | -7 | CN(C)N1C(=O)C2C3C=CC(O3)C2C1=O (stereo not given)
-5 | 0 | -19 | CC(Oc1ccccc1F)C(=O)NNC(=O)Cc1ccc(S(=O)(=O)N2CCOCC2)s1 (stereo not given)
2 | 2 | -25 | NC(=N\N=CCc1ccccc1)/C(N)=N/N=CCc1ccccc1
-1 | -4 | -3 | O=C(/C=C/c1ccccc1[N+](=O)[O-])Nc1cccc(S(=O)(=O)NC2=NCCCCC2)c1
-3 | -2 | -8 | COc1ccc(OC)c(CN2CCN(C(=O)[C@@H](NC(=O)c3cccc(C)c3)C(C)C)CC2)c1
-6 | 1 | -12 | Cc1ccc2c(CC(=O)NCC3(N4CCOCC4)CCCCC3)coc2c1C

Arranged by count of non-hydrogen atoms (descending): part of the list above.
MT1-MMP act inh | MT1-MMP act inh RFP | UUG fidelity | SMILES
4 | 3 | 2 | Cc1cnc(C(=O)N(CCCn2ccnc2)C2C(=O)Nc3ccccc3N=C2c2ccccc2)cn1 (stereo not given)
1 | 3 | -4 | COc1cccc(CC(NC(C)=O)C(=O)NC2CCN(c3c4c(nc5ncnn35)CCC4)CC2)c1 (stereo not given)
-3 | -2 | -8 | COc1ccc(OC)c(CN2CCN(C(=O)[C@@H](NC(=O)c3cccc(C)c3)C(C)C)CC2)c1
-2 | -1 | -12 | Cc1ccc(NC(=O)CCN2C(=O)NC3(CCCC3)C2=O)cc1S(=O)(=O)N1CCOCC1
-5 | 0 | -19 | CC(Oc1ccccc1F)C(=O)NNC(=O)Cc1ccc(S(=O)(=O)N2CCOCC2)s1 (stereo not given)
-6 | 3 | -6 | CN[C@H]1C[C@H]2c3[nH]c4ccc(-c5cccc(C)c5)cc4c3CCN2C[C@H]1[C@H](C)O
-3 | 4 | 8 | Cc1cccc(C(=O)OCC(=O)c2ccc(CC(=O)N3CCOCC3)s2)c1C
0 | -1 | -10 | COc1cc(S(=O)(=O)N2CCN(Cc3cccs3)CC2)ccc1NC(C)=O
2 | 2 | -25 | NC(=N\N=CCc1ccccc1)/C(N)=N/N=CCc1ccccc1
4 | 3 | -19 | Oc1c(CN2CCOCC2)cc(CN2CCOCC2)c(O)c1O
4 | -1 | -20 | O=S(=O)(Nc1ccc(-n2cnnn2)cc1)c1ccccc1F
1 | 0 | -1 | O=C(Nc1cccc2ccccc12)ON=C1CCCCC1
-5 | 3 | -13 | CSc1nc(Cl)c(Br)c(Nc2c[nH]c(=O)[nH]c2=O)n1
0 | 5 | 11 | CC(=O)Nc1cccc2cc(O)ccc12

Going on with the list:
MT1-MMP act inh | MT1-MMP act inh RFP | UUG fidelity | SMILES
-2 | 6 | 3 | COCCn1c(SCC(=O)NNC(=O)c2cc(Cl)ccc2OC)nnc1-c1ccncc1
-1 | -2 | -12 | CCOc1ccccc1N1CCN(C(=O)c2cc(S(=O)(=O)N(C)C)ccc2N2CCCC2)CC1
-1 | 4 | 17 | O=C(COC(=O)C1CC1)Nc1ccc([N+](=O)[O-])cc1C(F)(F)F
-2 | 3 | -2 | O=C(CN1CCN(C(=O)CN2C(=O)NC3(CCCC3)C2=O)CC1)Nc1cccc(F)c1
-4 | -3 | -16 | Cc1ccc(S(=O)(=O)N2C[C@H]3n4c(=O)ccc(=O)n4C[C@H](OC(=O)NCc4ccco4)[C@@]3(O)C2)cc1
3 | -3 | -13 | Cc1ccc(NC(=O)CN(C)C(=O)CCSc2ccc(F)cc2)cc1
0 | 3 | -2 | CNC(=O)c1ccc(NC(=O)c2cc(S(=O)(=O)N3CCOCC3)ccc2N2CCCC2)cc1
-1 | -2 | -2 | O=C(C1CCN(S(=O)(=O)c2ccccc2)CC1)N1CCN(c2ccccc2F)CC1
-2 | -5 | 7 | O=C(c1cccc(S(=O)(=O)N2CCCC2)c1)N1CCN(S(=O)(=O)c2cccc(Cl)c2)CC1
0 | 3 | -32 | CCn1nnnc1SCC(=O)N1c2ccccc2NC(=O)CC1C (stereo not given)
-7 | 1 | 2 | COC(=O)c1ccc(NC(=O)c2cc(-c3ccncc3)nc3ccccc23)cc1
-1 | 3 | -9 | Cc1occc1-c1nnc(SCC(=O)c2c(N)n(C3CC3)c(=O)[nH]c2=O)n1C
-16 | -11 | -7 | CC(C)(C)CC(C)(C)c1ccc(O)c(Cc2ccc(Cl)cc2Cl)c1
3 | 1 | -17 | O=C1C=C(c2ccccc2)CO1
4 | 4 | -1 | C#CCN(C[C@H]1[C@H](OC(=O)Nc2c(C)noc2C)[C@H](OC(=O)Nc2c(C)noc2C)C[C@H]2C(=O)N(c3ccccc3)C(=O)[C@@H]12)S(=O)(=O)c1ccc(C)cc1
10 | -4 | -3 | CN(CC(=O)Nc1ccc(Cl)cc1)C(=O)c1ccc(N2CCCC2=O)cc1
-4 | -2 | -37 | CCCCn1c(N)c(N(CCC(C)C)C(=O)C2=NN(c3ccccc3)C(=O)CC2)c(=O)[nH]c1=O
-5 | -11 | -3 | CC[C@]12c3[nH]c4cc(-c5ccco5)ccc4c3CCN1C(=O)[C@@H](CC(=O)NC/C=C(\C)CCC=C(C)C)C[C@@H]2C(=O)N1CCN(C(=O)c2ccco2)CC1
-2 | -2 | -20 | CN(CC(=O)Nc1ccc(F)cc1)C(=O)c1ccc(-c2ccc(F)cc2)o1
1 | 3 | -5 | O=C1C[C@H](NC(=O)OCc2ccccc2)CO1
-2 | 1 | -13 | O=C(COC(=O)Cn1cc(C(F)(F)F)ccc1=O)Nc1ccccc1
-14 | -14 | -19 | O=C(C[C@H]1C[C@H](C(=O)N2CCOCC2)[C@@]2(CCC3CCCC3)c3[nH]c4cc(-c5ccco5)ccc4c3CCN2C1=O)NCC12CC3CC(CC(C3)C1)C2
-3 | 0 | -1 | C=C1CCC2C(C)(C(=O)O)CCCC2(C)C1CCC(CO)CCO (stereo not given)
-1 | 0 | -7 | NC(=O)CCS(=O)(=O)CCN1CCN(S(=O)(=O)c2ccc3c(c2)CCC3)CC1
4 | 0 | 6 | Cc1ccccc1NC(=O)Cc1nc(COC(=O)CCc2ccccc2)cs1
2 | 3 | -9 | O=C(COC(=O)c1ccc(Cl)c(S(=O)(=O)NCc2ccccc2)c1)NC1CC1
2 | -4 | -9 | COc1ccccc1NS(=O)(=O)c1cccc(NC(=O)c2nn(C)c(=O)c3ccccc23)c1

Single records, as listed above.
CN(CC(=O)Nc1ccc(Cl)cc1)C(=O)c1ccc(N2CCCC2=O)cc1 in the list: MT1-MMP act inh = 10; MT1-MMP act inh RFP = -4; UUG fidelity = -3
Cc1ccc2c(CC(=O)NCC3(N4CCOCC4)CCCCC3)coc2c1C in the list: MT1-MMP act inh = -6; MT1-MMP act inh RFP = 1; UUG fidelity = -12
